Screening results: PubChem BioAssay, National Center for Advancing Translational Sciences (NCATS)
HPGD inh – qHTS Assay for Inhibitors of HPGD (15-Hydroxyprostaglandin Dehydrogenase). AID 894, 2007. purified HPGD, NADH fluorescence kinetic, PGE2 substrate. 15-hydroxyprostaglandin dehydrogenase [NAD(+)] (Homo sapiens), P15428. hit rate 4.3% among 150,000. Potency, µM, inactives show top-dose activity change, negative = inhibition, most hits filed as inhibitors; active = well fitted inhibition curve with a large enough effect (not every such curve was filed as active); inconclusive = small, poorly fitted or top-dose-only effect, or another doubt; inactive = no such curve, though single readings can be large or run the other way;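 further: top concentration of the series not given in the record; plate controls included wells without enzyme; inactives centre near -10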
Target sequence (P15428 whole entry, looked up): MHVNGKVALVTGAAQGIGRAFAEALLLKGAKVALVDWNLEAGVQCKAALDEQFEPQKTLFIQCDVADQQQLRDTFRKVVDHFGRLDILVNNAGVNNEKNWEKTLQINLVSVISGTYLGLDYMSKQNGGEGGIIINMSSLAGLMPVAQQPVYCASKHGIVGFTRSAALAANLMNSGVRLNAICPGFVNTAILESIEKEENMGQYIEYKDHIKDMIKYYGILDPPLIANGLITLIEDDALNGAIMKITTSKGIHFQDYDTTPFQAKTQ
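NADH formation kinetics: reaction with 30 uM PGE2 and 1 mM NAD+ (final), 20 nM enzyme, Tris-HCl pH 8 with Tween 20, after 15 min compound preincubation at room temperature. Fluorescence change, last versus first of five reads.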
Numbers without * were called inactive; ? = inconclusive. On the % scale 0 is the no-effect control and ±100 the full control effect; potency means the concentration at half of the fitted maximal effect.

SMILES	HPGD inh
CCCCOc1ccc(C(=O)Nc2ccc(N3CCN(C)CC3)cc2)cc1	?
CCOC(=O)c1cc(NC(=O)SCC(=O)O)c(C)nc1C	-12%
CN(C(=O)COc1ccccc1)c1nnc(-c2cccnc2)s1	-1%
COc1cc(C(=O)N2CCOCC2)cc(OC)c1OC	-14%
Cc1ccc(C(=O)Nc2ccccc2N2CCOCC2)c(C)c1	-7%
CC[C@H](C)[C@H](NC(=O)c1ccc(Cl)cc1)C(=O)OCC(=O)c1ccc2c(c1)NC(=O)CO2	-13%
Cc1ccc(N(CC(=O)NC2CC3CCC2C3)S(C)(=O)=O)cc1C (stereo unspecified)	-9%
COc1ccc(S(=O)(=O)Nc2ccc(F)cc2)c(C)c1C	-11%
O=C(NCCCc1ccccc1)c1ccncc1	-3%
COc1ccccc1-c1nnc2sc(COc3ccc(Cl)cc3)nn12	-24%
CCc1c(C)[nH]c(=S)c(C#N)c1C	35µM*
Cc1ccc(O)c(-c2cc(C(=O)Nc3c(C)n(C)n(-c4ccccc4)c3=O)[nH]n2)c1	20µM*
CN(C)S(=O)(=O)N(CC(=O)Nc1ccccc1F)c1ccccc1	4%
O=C(CCSc1nc(-c2ccco2)cc(C(F)(F)F)n1)N1CCN(c2ccccc2)CC1	-17%
COc1ccc(O[C@@H]2O[C@H](COC(C)=O)[C@@H](OC(C)=O)[C@H](OC(C)=O)[C@H]2NC(C)=O)cc1	-5%

Next part (five carried over from the part before).
SMILES	HPGD inh
CCc1c(C)[nH]c(=S)c(C#N)c1C	35µM*
Cc1ccc(O)c(-c2cc(C(=O)Nc3c(C)n(C)n(-c4ccccc4)c3=O)[nH]n2)c1	20µM*
CN(C)S(=O)(=O)N(CC(=O)Nc1ccccc1F)c1ccccc1	4%
O=C(CCSc1nc(-c2ccco2)cc(C(F)(F)F)n1)N1CCN(c2ccccc2)CC1	-17%
COc1ccc(O[C@@H]2O[C@H](COC(C)=O)[C@@H](OC(C)=O)[C@H](OC(C)=O)[C@H]2NC(C)=O)cc1	-5%
Cc1c(NC(=O)C(C)NCC2CCCO2)c(=O)n(-c2ccccc2)n1C (stereo unspecified)	-6%
Cc1c2cnn(-c3ccccc3)c(=O)c2c(C)n1CCCC(=O)N1CCN(c2ncccn2)CC1	-16%
Cc1ccc(NC(=O)CCC(=O)NCCO)cc1	-12%
OCC1OC(n2cnc3c(NCc4ccco4)ncnc32)C(O)C1O (stereo unspecified)	-12%
COc1cccc(C2CC(c3c(-c4ccccc4)c4cc(Cl)ccc4[nH]c3=O)=NN2S(C)(=O)=O)c1OC (stereo unspecified)	-22%
CCCCOc1ccc(-c2ncc(C(=O)OCC)c(N)n2)cc1	-18%
O=C(c1cc2c(s1)-c1ccccc1OC2)N1CCc2ccccc2C1	?
CCCCC(=O)Nc1ccc(C)c(O)c1	-2%
CC(C)Cn1nnnc1S(=O)(=O)Cc1ccccc1	-8%
CCN(CC)S(=O)(=O)c1cccc(NC(=O)COC(=O)c2ccc(Br)o2)c1	-6%
O=C(C1CCCO1)N1N=C(c2ccc(Br)cc2)CC1c1ccco1 (stereo unspecified)	-9%
O=C(O)C1C2C=CC(C2)C1C(=O)NCCC1=CCCCC1 (stereo unspecified)	-7%
NS(=O)(=O)c1ccc(CCNC(=O)C2CCCCN2S(=O)(=O)c2ccccc2)cc1 (stereo unspecified)	-3%
Cc1nc([N+](=O)[O-])c(Sc2nc3ccccc3n2C)n1Cc1ccccc1	-7%
COc1ccccc1N1CC(C(=O)Nc2cccc(C(=O)O)c2)CC1=O (stereo unspecified)	-8%
N/C(=N\OC(=O)Oc1ccccc1)c1ccc([N+](=O)[O-])cc1	-2%
COc1ccc(-n2c(C)c([N+](=O)[O-])c3ccc(O)c(CN(C)C)c32)cc1	-15%
COc1ccc(-n2cccc2/C=C2/NC(=O)N(c3cccc(Cl)c3)C2=O)cc1	-1%
Cc1ccc2c(c1)c1c3n2CCN(C(=O)Cn2c(-c4ccccc4)noc2=O)C3CCC1 (stereo unspecified)	-23%
Cc1csc(NC(=O)CSc2nnc(-c3ccccn3)n2-c2ccc(C)c(C)c2)n1	-8%
ON1C2CCCCC2N(O)C1c1c(F)c(F)c(F)c(F)c1F (stereo unspecified)	-5%
c1ccc(CSc2ncnc3c2cnn3Cc2ccccc2)cc1	?
Cc1ccccc1NC(=O)C1C2CCCC1C2c1ccccc1 (stereo unspecified)	-9%
CC(C)c1ccc(S(=O)(=O)N2CCN(C(=O)c3cccc(F)c3)CC2)cc1	-9%
Cc1ccc(NC(=O)CCn2cccc2)cc1Cl	-20%
Cc1ccc(N2C(=O)C(Cl)=C(NCc3ccccc3)C2=O)c(C)c1	-22%
COc1ccc(CNC(=S)N/N=C/c2ccc(O)c(OC)c2)cc1	-15%
NC(=O)c1ccccc1N/C=C/C(=O)c1ccccc1	-7%
CCOC(=O)c1ccccc1NC(=O)c1cccs1	-4%
C/C(CC(=O)Nc1ccc(Cl)cc1Cl)=N\NC(=O)c1ccco1	2%
Cc1ccccc1NC(=O)COc1ccc(Br)cc1C	-7%
CC(=O)Nc1ccc(NC(=O)c2ccc(Cn3cc(Cl)cn3)cc2)cc1	-12%
COc1ccc(-n2ncc3c(NCCN4CCOCC4)ncnc32)cc1	-36%
Cc1ccc(C(=O)COC(=O)c2ccc(Br)o2)cc1C	?
COc1cc(/C=N/NC(=O)/C(=C\c2ccc([N+](=O)[O-])cc2)NC(=O)c2ccccc2)cc(OC)c1O	-4%
COc1ccc(-c2noc(-c3ccco3)n2)cc1OC	-14%
CCCCC(O)(CCCC)C(=O)NN(C(=O)CCl)c1ccccc1	-6%
O=C(CN1CCCCC1)Nc1cccc(-n2cnnn2)c1	-3%
COCCOC(=O)C1=C(C)NC2=C(C(=O)CCC2)C1c1ccc(N(C)C)cc1 (stereo unspecified)	-21%
CC(O)(CS(=O)(=O)Cc1ccccc1)C(=O)Nc1ccc(C(F)(F)F)cc1 (stereo unspecified)	-17%
COc1cccc(-c2cc3nc(-c4ccccc4)cc(N4CCC5(CC4)OCCO5)n3n2)c1	?
Fc1ccccc1COc1cccc(/C=N/n2cnnc2)c1	-22%
OCC#Cc1cnc2ccccc2c1	-12%
CC(=O)N(c1cccc(Br)c1)C1C=CS(=O)(=O)C1 (stereo unspecified)	6%
CSc1nncc(=O)[nH]1	-3%

A stretch from the list above, for reference:
SMILES	HPGD inh
COc1ccc(-n2ncc3c(NCCN4CCOCC4)ncnc32)cc1	-36%
Cc1ccc(C(=O)COC(=O)c2ccc(Br)o2)cc1C	?
COc1cc(/C=N/NC(=O)/C(=C\c2ccc([N+](=O)[O-])cc2)NC(=O)c2ccccc2)cc(OC)c1O	-4%
COc1ccc(-c2noc(-c3ccco3)n2)cc1OC	-14%
CCCCC(O)(CCCC)C(=O)NN(C(=O)CCl)c1ccccc1	-6%

Further structures.
SMILES	HPGD inh
C=CCn1c(C)cc(C(=O)COc2nncc3ccccc23)c1C	-26%
CC(C)(C)N1C(=O)c2ccccc2NC(=O)N1Cc1ccc(Br)cc1	-7%
COc1ccc(-c2[nH]c(-c3ccc(Cl)cc3)nc2SCC(=O)Nc2nccs2)cc1	-27%
CNC(=S)N/N=C/c1ccc(OCc2ccccc2)c(Br)c1	?
CCCc1cc(-c2n[nH]c(=S)n2C(C)c2ccccc2)cs1 (stereo unspecified)	13µM*
CCOc1ccccc1-n1c(SCC(N)=O)nnc1-c1ccc(O)cc1	-6%
Cc1cccc(Nc2nc(N)c([N+](=O)[O-])c(NCc3ccco3)n2)c1	-12%
CS(=O)(=O)N(CC(=O)Nc1ccc(F)c(F)c1)c1cccc([N+](=O)[O-])c1	-4%
CN(C(=O)CSc1nc2c(c(=O)[nH]1)CCCC2)C1CCCCC1	-16%
CC(C)=Nc1ccccc1C1COC(=O)C1=N (stereo unspecified)	-8%
CN(Cc1ccccc1F)c1nc(-c2cccs2)nc2ccccc12	?
O=C(N=C1SCC(=O)N1c1ccccc1Cl)c1ccco1	-4%
O=C(Nc1ccc2c(c1)OCO2)Nc1ccc(Cl)cc1Cl	-12%
O=P1(O)C=C(c2ccccc2)OC(c2ccccc2)=C1	-6%
Cc1nc2nc(NCc3cccs3)nn2c(C)c1Cl	?

Ordered by count of non-hydrogen atoms (rising): part of the list above
SMILES	HPGD inh
CC(=O)N(c1cccc(Br)c1)C1C=CS(=O)(=O)C1 (stereo unspecified)	6%
Cc1ccccc1NC(=O)COc1ccc(Br)cc1C	-7%
O=C(O)C1C2C=CC(C2)C1C(=O)NCCC1=CCCCC1 (stereo unspecified)	-7%
N/C(=N\OC(=O)Oc1ccccc1)c1ccc([N+](=O)[O-])cc1	-2%
COc1ccc(-c2[nH]c(-c3ccc(Cl)cc3)nc2SCC(=O)Nc2nccs2)cc1	-27%
CC[C@H](C)[C@H](NC(=O)c1ccc(Cl)cc1)C(=O)OCC(=O)c1ccc2c(c1)NC(=O)CO2	-13%

Continuation.
SMILES	HPGD inh
O=C(c1ccc(Cl)c(S(=O)(=O)NCc2ccccc2)c1)N1CCN(c2ccccn2)CC1	-14%
O=C(c1ccc(-c2ccccc2)cc1)N1CCCC1	1.6µM*
Cc1ccccc1N1C(=O)C(Oc2ccc(Cl)cc2)C1CNC(C)(C)C (stereo unspecified)	-8%
C=CCNc1nc(NC(C)(C)CO)nc(OC)n1	-12%
CC(C)Cn1c(=O)c(C(=O)NCc2ccccn2)c(O)c2ccccc21	-25%
CC(C)(C)NC(=O)[C@@H]1C[C@H]2CCCC[C@@H]2CN1C[C@H](O)[C@H](Cc1ccccc1)NC(=O)[C@@H](CC(N)=O)NC(=O)c1ccc2ccccc2n1	-6%
O=c1c2ccccc2nnn1CSc1nc2ccccc2[nH]1	-3%
COc1cccc(NS(=O)(=O)c2ccc(Br)s2)c1	-5%
CCOC(=O)CN1C(=O)N[C@@H](CCc2ccccc2)[C@@H](C(=O)OC)[C@H]1C	-7%
COc1ccccc1-c1nnc(SCC(=O)Nc2nc(-c3ccccc3)cs2)n1C	-15%
O=C(O)CSC1c2ccccc2C(=O)N1c1ccccc1 (stereo unspecified)	0%
O=C(CCC(=O)OC(C(=O)c1ccccc1)c1ccccc1)Nc1ccccc1 (stereo unspecified)	-4%
COc1ccccc1C(=O)N1CCN(C(=O)c2ccncc2)CC1	-10%
COc1ccccc1NC(=O)C1=C(C)Nc2nc(-c3cccs3)nn2C1c1cccc(O)c1 (stereo unspecified)	-13%
CCOc1ccc(C2C=C(c3ccc(C)cc3)Nc3ncnn32)cc1 (stereo unspecified)	?
CC(=O)OC1CC2C(C)(C)C(=O)C=C[C@]2(C)C2CC[C@@]3(C)C(c4ccoc4)OC(=O)C4O[C@@]43[C@]12C (stereo partly specified)	-1%
Cc1cccc(NC(=O)c2cc(Cl)nc3ccccc23)c1	-5%
O=C(CSc1nnc(-c2cccnc2)s1)Nc1cccc(C(=O)O)c1	-25%
COc1ccc(C2(CNC(=O)C(c3ccccc3)c3ccccc3)CCOCC2)cc1OC	3%
CCOC(=O)c1[nH]c2ccc(OC)cc2c1NC(=S)N1CCN(c2cccc(Cl)c2)CC1	-17%
O=C(NCCCn1ccnc1)C(=O)NCc1ccc(Cl)cc1	2%
O=C(CNS(=O)(=O)c1cccc(C(F)(F)F)c1)Nc1ccccc1F	-1%
CCOC(=O)N1CCN(C(=O)C(CC(C)C)NS(=O)(=O)c2ccc3c(c2)oc(=O)n3C)CC1 (stereo unspecified)	-7%
CCC(CC)NC(=O)c1ccc2c(c1)OCCO2	-24%
O=C(Nc1ccc(Br)cc1F)c1ccc2c(c1)N(Cc1ccccc1)C(=O)CS2=O (stereo unspecified)	-8%
O=C(Nc1ccc(Br)cc1)c1cccc(N2C(=O)C3C4CCC(C4)C3C2=O)c1 (stereo unspecified)	-13%
Cn1c(N2C(=O)CC(Cc3ccccc3)C2=O)nc2ccccc21 (stereo unspecified)	1%
O=C(CN1C(=O)c2cccc3cccc1c23)NCc1cccnc1	-16%
CCNC(=O)C1CC(=O)OC12CCCCC2 (stereo unspecified)	-13%
COc1ccc2occ(C(=O)c3coc4ccc(O)c(CN(C)C)c34)c2c1	1%
Cc1ccccc1CSc1nsc(N)n1	-24%
CC1(C)NC(=O)N(CC(O)COc2ccc(-c3ccccc3)cc2)C1=O (stereo unspecified)	-3%
CCOC(=O)c1cnc(-n2nc(C)cc2C)nc1N1CCOCC1	-7%
CCOc1ccc(NC(=O)NCCCSC2CCCCC2)cc1	-4%
N#Cc1ccccc1Sc1ccccc1C(=O)OCc1nnc(-c2ccccc2)o1	8.9µM*
CCn1c(SCc2ccc(Cl)c(Cl)c2)nnc1C(C)NC(=O)c1ccc(OC)cc1 (stereo unspecified)	-5%
O=C(N/N=C\c1cccc(Cl)c1)c1ccc(Cn2cc(Br)c([N+](=O)[O-])n2)o1	-28%
Nc1nc(Cl)cc(NCCO)n1	-7%
COc1ccc(CCNC(=O)COc2ccc(S(=O)(=O)N3CCOCC3)cc2)cc1	-8%
CCCc1cc(=O)oc2cc(Oc3ncccn3)ccc12	?
O=C(N/N=C/C=C\c1ccccc1[N+](=O)[O-])c1cc(-c2ccc3ccccc3c2)n[nH]1	?
CC(/C=N/NC(=O)c1cc(-c2ccncc2)nc2ccccc12)=C\c1ccco1	-21%
CCn1cc(C(=O)N2CCc3ccccc32)c(=O)c2cc(S(=O)(=O)N3CC(C)CC(C)C3)ccc21 (stereo unspecified)	?
O=C(COC(=O)CCCc1nc2ccccc2s1)Nc1ncc(Cl)cc1Cl	-2%
COC(=O)c1ccc2c(c1)N(Cc1nc(-c3cccc(C)c3)oc1C)C(=O)C1CCCN21 (stereo unspecified)	?
COc1cc2c(cc1OC)/C(=C/c1ccc(Br)cc1)C(=O)OC2	-12%
CCCC(=O)NCCc1cc2ccc(OC)cc2[nH]c1=O	-21%
COC(=O)c1cc([N+](=O)[O-])ccc1N1CCN(Cc2ccccc2)CC1	-16%
COCCCn1ccc(O)c(Cc2ccc(F)cc2)c1=O	-3%

Not all compounds are listed (hit frequency here may not be typical).
